# Screening results deposited in PubChem by several laboratories.
# Beta apoptosis – inhibitors of cytokine-induced beta cell apoptosis, primary screen, luminescence; INS-1E cytokine-induced death, ATP luminescence, 48 h; percent of positive-control rescue, neutral wells zero; protection from apoptosis, % (no concentration beside the values); actives 0.8% (n = 300,000);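 active means all replicates at 75% or more, or half of them and the mean; inconclusive means half reach 75% but not the mean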;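 further: 0% = cytokine-treated negative control wells and 100% = positive control rescue; higher means more ATP so stronger rescue from cytokine killing; wells of about 40 µL received 100 nL stock; the first replicate is given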
# MLL AF4-AF9 inh – inhibitors of AF4 peptide binding to AF9, primary screen, biochemical, AlphaScreen, biotin-AF4 peptide, FLAG-AF9, single point; Protein AF-9 (Homo sapiens), P42568; inhibition, % at 10 µM; actives 0.47% (n = 350,000); AID 651704, 2012;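 active means every replicate reaching a set inhibition limit, whatever the replicate mean, cut at about 25% in these data; inconclusive means mean inhibition reaches that limit but some replicates miss it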;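 further: 0% = plate neutral control median and 100% = total signal loss; the record names both 10 and 1 µM as test concentration; the first replicate is given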
# Target sequence (P42568 whole entry, looked up): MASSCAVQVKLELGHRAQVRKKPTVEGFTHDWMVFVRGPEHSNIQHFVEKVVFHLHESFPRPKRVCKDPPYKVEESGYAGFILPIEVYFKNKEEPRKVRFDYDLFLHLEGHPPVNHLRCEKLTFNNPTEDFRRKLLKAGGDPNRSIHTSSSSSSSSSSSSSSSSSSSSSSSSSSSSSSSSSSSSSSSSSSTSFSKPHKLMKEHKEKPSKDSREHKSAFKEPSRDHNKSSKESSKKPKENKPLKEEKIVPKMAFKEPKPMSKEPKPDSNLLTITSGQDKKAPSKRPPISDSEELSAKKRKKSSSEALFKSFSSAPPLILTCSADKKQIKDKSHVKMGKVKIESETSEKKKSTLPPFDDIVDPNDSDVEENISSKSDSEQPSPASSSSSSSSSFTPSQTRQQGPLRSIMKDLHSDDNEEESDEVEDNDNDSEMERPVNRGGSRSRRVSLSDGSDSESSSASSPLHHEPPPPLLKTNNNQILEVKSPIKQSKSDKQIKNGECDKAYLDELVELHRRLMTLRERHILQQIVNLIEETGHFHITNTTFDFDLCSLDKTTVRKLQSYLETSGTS
# Calb FLC – C. albicans growth inhibition with fluconazole, primary screen, CaCi-2 strain, Alamar Blue fluorescence. C. albicans CaCi-2 (fluconazole-resistant clinical isolate) + fluconazole, 48 h. growth inhibition, % (no concentration beside the values). actives 0.57% (n = 300,000);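 active means most replicates above 75%; inconclusive means exactly half above 75%; inactive means most below 75%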;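 further: all wells also contain fluconazole at 8 µg/ml as a sub-toxic cotreatment; 0% = median of DMSO wells and 100% = median of geldanamycin control wells; wells of about 8 µL received 7.5 nL stock; the first replicate is given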
# T cruzi repl – inhibitors of intracellular T. cruzi growth, primary screen, luminescence, NIH3T3 host cells; T. cruzi beta-gal in NIH3T3, 90 h; inhibition, % (test concentration not listed); actives 1.4% (n = 300,000);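 active means mean inhibition across valid replicates above about 55%, limit read from the data; inconclusive means mean below that limit but half or more replicates reach it; inactive means mean below it, under half of replicates reach it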;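 further: signal also drops with host cell toxicity which is not excluded here; 0% = plate median of DMSO wells and 100% = zero luminescence signal; higher percent means less beta-gal luminescence so fewer parasites; stock transfer was 50 nL into about 50 µL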
# LANA-H2B inh – blockers of LANA interaction with H2A/H2B – biochemical, FP readout, HTS, primary screen | AID 2629, 2010 | cell-free LANA-H2A/H2B peptide, fluorescence polarization | inhibition, % (test concentration not listed) | actives 0.6% (n = 320,000); in the data active means inhibition mostly above about 10%, no sharp cut-off; inactive means mostly below about 6.7%;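 further: stock transfer was 7.5 nL into about 10 µL; 0% = median of vehicle wells and 100% = median of positive control wells; one replicate is shown; the record names a cut of 25% in any replicate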
# A1 inh – caspase 3/7 activation in MEF A1-2A-BIM cells, primary screen, A1 inhibitor project, cell-based, luminescence, HTS. actives 0.066% (n = 330,000). caspase activation, % (no concentration beside the values). AID 2462, 2010. Caspase-Glo 3/7 luminescence, 3 h; percent of clofoctol response, vehicle zero;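 active means over half of replicate activation scores above 10%, or exactly half above 10 with the replicate mean above 10; inconclusive means replicate mean below 10 yet half the replicates above 10; inactive means over half of replicates below 10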;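 further: wells of about 30 µL received 50 nL stock; many hits fall short of the cut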
# RanGTP-Imp inh – inhibitors of RanGTP-importin-beta interaction, primary screen, biochemical, FRET, CFP-Ran, YFP-importin-beta, homogeneous; AID 2216, 2009; cell-free CFP-Ran/YFP-importin-beta FRET ratio; actives 1.1% (n = 300,000); inhibition, % (no concentration beside the values); Ran GTPase (GTP-bound) - importin-beta complex;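 active means most replicates above 15%; inconclusive means exactly half above 15%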;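 further: 0% = DMSO wells and 100% = Ran loaded with GDP instead of GTP; wells of about 40 µL received 100 nL stock; the first replicate is given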
# Vif TR-FRET – inhibitors of Vif binding to APOBEC3G peptide, primary screen, biochemical, TR-FRET, GST-Vif 1-94, biotin-A3G peptide, dose response retest (AID 1117319); TR-FRET GST-Vif / biotin-A3G peptide binding; higher % means a stronger effect; test concentration not given here; strong numbers were not always called active; inhibition, %; hits with a dose series show IC50 in µM; actives 0.57% (n = 260,000);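 active means above the screen mean plus three standard deviations and confirmed in dose response; inconclusive means results disagree or hit not tested in dose response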;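 further: Vif residues 1-94 fused to GST binding biotinylated APOBEC3G peptide 110-148; 0% = full assay without inhibitor and 100% = GST in place of GST-Vif; retest series ran down from 100 µM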
# * hit, by the source's call; ? = inconclusive; · = no result given; & = joins results of further samples.
SMILES,Beta apoptosis,MLL AF4-AF9 inh,Calb FLC,T cruzi repl,LANA-H2B inh,A1 inh,RanGTP-Imp inh,Vif TR-FRET
CN1CCc2c(sc3nc(SCC(=O)N4CCOCC4)nc(N)c23)C1,-1,·,-5,-6,0.9,1.0,4.8,14%&-1%
Cc1ccc(CCNC(=O)c2ccc3nc4ccc(Cl)cc4c(=O)n3c2)cc1,7,-3.0,1,-4,-1.4,0.4,?,-4%
CN(C)C(=O)CSc1nnc(-c2cccnc2)n1-c1ccccc1,-1,-7.3,38,-16,0.3,-0.2,1.9,0%
O=C1C(Cc2ccccc2)NC(=S)N1c1ccccc1 (stereo not given),-1,0.0,-8,-13,-5.6,0.5,-0.5,-4%
Cc1nonc1NC(=O)CSc1nc2c(C)cccc2cc1C#N,1,·,5,17,0.0,-0.4,-9.1,-68%
COc1ccc(CCNC(=O)C/C(C)=N/NC(=O)COc2ccc(C)cc2Br)cc1OC,0,-16,-8,3,-0.5,-0.3,-0.6,·
CCc1c(C)c2ccc(OCC(=O)OC)cc2oc1=O,-11,·,-1,-7,3.4,-0.5,-4.2,28%
CC(C)c1ccc(NC(=O)CCNC(=O)Cn2cnc3ccccc3c2=O)cc1,-6,2.9,5,-2,3.2,-0.1,-4.8,·
CC(C)Oc1ccc(C(CC(=O)N2CCOCC2)C(C)C)cc1 (stereo not given),-1,-1.5,7,-2,1.8,-0.8,6.3,-5%
Cc1ccc(S(=O)(=O)N(CC(=O)Nc2cc(C)ccc2C)C(=O)N2CCN(C)CC2)cc1,·,-0.8,0,-15,2.6,-1.4,-0.6,0%
CCCC/C(C)=N/NC(=O)C(=O)NCCc1ccccc1,-3,·,-5,-12,2.8,-0.3,-2.8,-6%
COc1ccc(C(=O)N2CCN(c3nc(C4CC4)nc4sc(C)c(C)c34)CC2)cc1,-6,4.9,7,22,0.0,0.3,-3.4,·
COc1cc(/C=C2/SC(=S)NC2=O)ccc1OS(=O)(=O)c1ccc(C)cc1,39,·,49,-24,1.5,0.3,4.4,30%
COc1ccc(C(=O)NC2CCCCCCC2)cc1OC,·,-0.4,3,·,-4.0,1.2,8.8,·
COc1ccc(CCNC(=O)Nc2ccccc2[N+](=O)[O-])cc1,10,-1.1,4,1,-3.1,0.4,7.4,0%
CCOC(=O)c1nn(-c2ccc(Cl)cc2Cl)c(=N)c(C#N)c1C,-8,·,-2,-4,-1.4,0.6,?,13µM*
CC(=O)Nc1nn(C)c2nc3cc(C)ccc3cc12,-6,·,5,-2,2.6,0.3,8.9,5%
CC(=O)c1cn(CC(=O)Nc2ccccc2C(F)(F)F)c2ccccc12,·,4.8,2,-8,-6.7,-0.5,-2.2,-4%
Fc1ccc(N2CCN(c3nc(-c4ccco4)cc(C(F)(F)F)n3)CC2)cc1,12,·,-5,3,-2.3,0.4,-0.6,15%
CCOC(=O)c1sc(N)c(C#N)c1CSc1nc2ccc(OCC)cc2[nH]1,9,·,3,9,-1.8,-0.3,0.7,0%
O=C(CSc1nnc(-c2ccccc2Br)o1)Nc1cccc2ccccc12,3,·,0,-18,3.8,-0.2,0.4,-3%
COc1ccc(CN2CCCN(S(=O)(=O)c3ccc(Br)cc3)CC2)cc1,2,2.0,-2,24,-8.9,0.0,9.6,-2%
CCOc1cc(CNc2ccc3c(c2)OCCO3)cc(Br)c1OC,17,·,-3,7,6.2,-0.5,3.0,28%
CCCn1c(N)c(C(=O)CSc2nc3ccccc3c(=O)n2-c2ccc(OC)cc2)c(=O)[nH]c1=O,-2,-0.8,2,3,-0.1,1.6,1.3,4%
COc1ccccc1NC(=O)Nc1ccc(C(=O)N2CCCCC2)cc1,41,0.8,-19,12,-0.9,-7.8,3.1,11%
CCc1nnc(N/N=C/c2ccccc2F)n1N,3,-0.8,1,-16,-3.9,0.4,?,2%
CC(=O)NNC(=O)N1Cc2ccccc2Oc2ccc(Cl)cc21,-5,-1.2,·,0,0.6,0.2,8.4,·
CCOc1ccc(N(CC(=O)Nc2cccc(C)c2C)S(=O)(=O)c2c(C)[nH]c(=O)[nH]c2=O)cc1,-8,-1.0,1,-10,-0.9,1.0,-5.8,-2%
Cc1ccc(S(=O)(=O)N2CCOCC2)cc1C(=O)OC(C)C(=O)NC1CCCC1 (stereo not given),-5,5.3,·,·,4.5,0.2,·,-2%
CC(C)CCSc1nc2ccccc2[nH]1,0,-2.8,-18,4,3.3,-4.6,?,-1%
CC(C)(C)c1nc(SCC(=O)c2ccccc2)c2ccccc2n1,5,-8.8,3,15,-4.5,0.8,-1.4,14%
NC(=O)CSc1nnc2n(N)c(=O)c3ccccc3n12,3,-3.0,-7,-9,9.2,0.5,-3.5,-6%
Cc1ccc(-c2cnc(NC(=O)CCC(=O)N(C)Cc3ccccc3)n2C)cc1,?,·,0,-10,3.0,1.9,2.3,2%
O=C(CCc1ccc(S(=O)(=O)N2CCOCC2)cc1)OCC(=O)c1ccccc1F,-5,-4.0,·,·,-0.8,0.0,·,·
CCn1c(SCC(=O)Nc2ccc(S(N)(=O)=O)cc2)nnc1-c1ccccc1OC,-11,·,-6,5,-5.4,0.2,3.1,-8%
COC(=O)COc1cccc(NC(=O)c2ccc(C)cc2)c1,2,·,-9,1,3.4,-1.3,3.0,10%
CC(=O)Oc1ccc2c(C)c(CC(=O)N3CCN(C(=O)C4COc5ccccc5O4)CC3)c(=O)oc2c1C (stereo not given),3,-2.3,-11,0,1.1,0.4,4.9,-3%
COc1ccc(S(=O)(=O)N2CCCCC2)cc1NC(=O)C1CCCC1,-9,1.9,·,·,-2.7,0.1,·,-1%
Cc1cc(C)n(-c2nncc(-c3ccccc3)n2)n1,2,·,4,20,3.7,-1.9,-3.6,-1%
OC(CNC1CCCC1)COc1ccccc1Br (stereo not given),-5,1.5,-5,-9,3.5,0.9,1.9,-4%

# Look-ups from the results shown.
# Calb FLC result of CC(=O)Oc1ccc2c(C)c(CC(=O)N3CCN(C(=O)C4COc5ccccc5O4)CC3)c(=O)oc2c1C (stereo not given) : -11
# MLL AF4-AF9 inh result of NC(=O)CSc1nnc2n(N)c(=O)c3ccccc3n12 : -3.0

# New compounds follow:
SMILES,Beta apoptosis,MLL AF4-AF9 inh,Calb FLC,T cruzi repl,LANA-H2B inh,A1 inh,RanGTP-Imp inh,Vif TR-FRET
O=C(C1CCCN(c2ncnc3c2nc2n3CCCCC2)C1)N1CCN(c2ccccc2F)CC1 (stereo not given),5,1.5,17,17,-0.7,0.2,0.9,2%
CCOc1ccc(NC(=S)Nc2ccc(C)c([N+](=O)[O-])c2)cc1,-1,·,?,15,1.3,·,-6.5,2%
O=C(CNC(=O)c1cc(Cl)cc([N+](=O)[O-])c1)OCC(=O)N1CCCCC1,5,-2.1,·,·,-3.8,-0.9,·,·
O=S(=O)(c1cccc2cccnc12)n1cnc2ccccc21,1,·,-15,-3,2.0,1.2,0.8,-1%
Cc1ccccc1-n1nc(C)c(N=O)c1N,-3,0.6,17,-15,30*,-0.4,-3.7,3%
COc1ccc(CNC(=O)CCCn2nc([N+](=O)[O-])cc2C)cc1,-8,-2.8,-5,4,-6.7,0.1,3.1,3%
O=C(CN1CCCN(S(=O)(=O)c2ccc(F)cc2)CC1)Nc1ccccc1Br,9,·,7,11,5.8,-0.4,-1.9,15%
O=c1[nH]c(/C(Cl)=C/c2cc(Cl)ccc2O)nc2cc(Cl)ccc12,-4,1.0,-7,-11,·,-0.4,1.9,·
CCOC(=O)C1(CCOc2ccccc2)CCN(Cc2cccn2-c2cccnc2)CC1,7,16,-4,60*,7.1,-1.2,0.6,17%
CCN(CC)CCn1cnc2c([nH]c3cccc(OC)c32)c1=O,-10,·,1,-10,-3.4,0.1,-1.8,28%
O=C(/C=C/c1cccc([N+](=O)[O-])c1)NCCSCc1ccco1,-2,-5.6,-1,-1,0.0,0.9,0.3,16%
Cc1ccc(NS(=O)(=O)c2ccc(CCC(=O)N3CCOCC3)cc2)cc1,-5,·,-7,-2,4.5,0.2,?,-4%
O=c1cc(N2CCCCC2)nc2n1CCCS2,1,·,-30,-8,-1.8,0.1,159*,?
COc1cc(/C=N/n2nnnc2N)ccc1OC(C)C,-2,-1.4,1,-4,5.4,-1.4,0.6,-1%
Cc1c(C)c2ccc(OC(C)C(=O)NC3CCN(Cc4ccccc4)CC3)cc2oc1=O (stereo not given),·,-2.2,-2,41,1.7,2.4,2.7,·
CC(=O)c1ccc(O)c(CSC2=NCCS2)c1,-3,-1.0,33,-12,-21,0.8,0.8,·
Cc1ccccc1NC(=O)CSc1nnc2ccc(-c3cccnc3)nn12,-1,4.2,-6,-6,·,1.9,2.8,5%
COC(=O)c1[nH]c(=O)c2ccccc2c1OCc1ccccc1,8,·,15,0,2.6,-0.9,3.2,-4%
O=C(Cn1ncc2c([nH]c3ccccc32)c1=O)NCCc1ccccc1,·,-6.9,-7,-10,-7.8,-0.9,3.6,·
COc1ccccc1NC(=O)c1cc(N2C(=O)C3C4CCC(C4)C3C2=O)ccc1Cl (stereo not given),-3,2.9,0,7,1.4,-0.1,2.5,·
O=C(N/N=C/c1ccc[nH]1)c1cccc([N+](=O)[O-])c1,0,·,9,-9,5.6,-0.3,-3.1,·
CC(C)C(OC(=O)c1cccs1)C(=O)NCc1ccc(F)cc1 (stereo not given),-3,-1.0,7,-2,0.3,-0.1,1.5,·
O=C(COc1cc(Cl)c(Cl)cc1Cl)NCCN1CCOCC1,-3,·,5,-6,2.3,0.0,-3.7,8%
CC(C)NC(=O)C1=NN(c2ccccc2)C(=O)CC1,-4,0.1,3,2,1.5,0.6,0.0,1%
COc1ccc(OC)c(NC(=O)CN(C)S(=O)(=O)c2ccc3nc(C)sc3c2)c1,-3,·,-12,-10,1.8,0.0,-3.1,·
Cc1cccc(C)c1Nc1nnc(SC(C)C(=O)Nc2c(C)n(C)n(-c3ccccc3)c2=O)s1 (stereo not given),2,-2.1,-18,-6,-0.2,-0.1,0.4,-13%
O=[N+]([O-])c1cccc(N(CC2CO2)S(=O)(=O)c2ccccc2)c1 (stereo not given),2,1.3,1,0,-2.8,-0.1,-0.6,·
CCOC(=O)C1CCCCN1Cc1ccccc1C(F)(F)F (stereo not given),-1,·,0,-5,-1.2,-1.9,?,-4%
OCCC1CN(Cc2ccc3nonc3c2)CCN1Cc1ccsc1 (stereo not given),-7,-1.9,-37,70*,0.5,1.0,8.6,·
Cc1ccc(C(=O)n2c(-c3ccccc3)cnc2SCC(=O)Nc2ccc(C)cc2C)cc1,0,3.2,-1,3,1.4,0.3,-0.8,12%
Oc1ccc(COCc2ccccc2)c2cccnc12,99*,66*,1,47,-11,-1.5,-2.7,14%&2%
